# Source: PubChem BioAssay
# AmpC nodet inh – Promiscuous and Specific Inhibitors of AmpC Beta-Lactamase (assay without detergent) | P00811 | AmpC nitrocefin hydrolysis, absorbance 480 nm, no detergent; potencies from a single point are estimates | Potency, µM (top dose mostly 28.7 µM), for inactives: at the top dose activity change, negative = inhibition | 1.8% of 71,000 active; active = falling curve, for most hits resting on a single point; inconclusive = weak or doubtful change; inactive = flat or rising curve; note: % of control where 0% means no effect; about half of the hits show no inhibition at the top dose; a quarter of the inactives give rising signals
# Target sequence (P00811 whole entry, looked up): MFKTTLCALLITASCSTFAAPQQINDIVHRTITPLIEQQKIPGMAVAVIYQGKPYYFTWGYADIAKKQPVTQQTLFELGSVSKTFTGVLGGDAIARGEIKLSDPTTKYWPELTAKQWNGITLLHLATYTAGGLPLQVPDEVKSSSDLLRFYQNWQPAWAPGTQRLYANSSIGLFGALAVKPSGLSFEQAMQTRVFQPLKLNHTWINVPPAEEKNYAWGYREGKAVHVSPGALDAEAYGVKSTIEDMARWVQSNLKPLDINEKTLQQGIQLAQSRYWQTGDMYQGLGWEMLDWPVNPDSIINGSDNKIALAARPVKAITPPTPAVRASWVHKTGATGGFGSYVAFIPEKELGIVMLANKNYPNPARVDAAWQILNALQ
#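 AmpC, 20 mM phosphate pH 7.0; 15 min cpd preinc, RT; start with nitrocefin (800 uM stock); A480 kinetic read, 20 s intervals, 4 min. No-enzyme wells = negative control.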
# * = called active by the depositor; u = inconclusive; [ ] = another dose, or the depositor's remark. Potency is the fitted concentration of half-maximal effect. Some of the compounds tested. The share of hits here may be higher or lower than overall.
SMILES,AmpC nodet inh
Cn1c(-c2c(N)n(C3CCCC3)c3nc4ccccc4nc23)nc2ccccc21,23%
NCCC[C@@](N)(C(=O)O)C(F)F,4%
COc1ccc(CNn2c(C)nc3ccccc3c2=O)cc1,11%
CS(C)(=O)=NS(=O)(=O)c1ccc(Cl)cc1,-7%
COc1ccc2cc(CN(Cc3ccco3)Cc3nnnn3C3CCCCC3)c(=O)[nH]c2c1,149%
CCOC(=O)CCCNC(=O)CCNC(=O)c1ccc(OC(C)C)cc1,19%
COc1ccc2cc(CCNC(=O)c3ccc4c(c3)OCO4)c(=O)[nH]c2c1,1%
Cc1csc(NC(=O)CSc2nnc(Cn3c(=O)sc4ccccc43)n2-c2ccccc2)n1,69%
COCCn1c(=O)c(CCc2ccccc2)nc2cnc(OC)nc21,64%
CC(=O)Nc1ccc(NC2=CC(=O)CC(C)(C)C2)cc1,14%
O=C(c1ccco1)N1CCN(S(=O)(=O)c2cccc3nsnc23)CC1,15%
O=C(CCN1C(=O)c2ccccc2C1=O)Nc1ccc(S(=O)(=O)N2CCOCC2)cc1,12%
O=S(=O)(NCC1CCCO1)c1cccc2nsnc12 (stereo unspecified),2%
CCCC(C(=O)NCC1CCCO1)N(Cc1ccco1)C(=O)CNS(=O)(=O)c1ccccc1 (stereo unspecified),60%
O=C(NCc1ccco1)c1cc2c(s1)CSC2,-25%
Cn1c(C(=O)NCCN2CCN(c3ccccc3F)CC2)cc2c(=O)n(C)c3ccccc3c21,4µM*[single pt active]
CCOC(=O)c1sc(NC(=O)CSc2nnnn2-c2ccc(C)cc2)c(C(=O)OCC)c1C,-15%
Cc1sc2nnn(CC(=O)N3CCN(C(=O)c4ccco4)CC3)c(=O)c2c1C,43%
COC(=O)[C@@]1(Cc2ccc(OC)cc2)[C@H]2c3cc(C(=O)N4CCCC4)n(CCc4ccc(O)c(OC)c4)c3C[C@H]2CN1C(=O)c1ccccc1,172%
COc1ccc(-c2csc(Cc3nnc(N4CCOCC4)n3-c3ccccc3)n2)cc1,129%
CCCC[C@@H]1C[C@H]1C(NC(=O)Cc1ccccc1)c1ccc(-c2ccccc2)cc1 (stereo partly specified),-13%
C[N+]1(CCCC[N+]2(C)CCCCCCC2)CCCCCCC1,2%[5.75 µM]
COc1ccc(CC(=O)Nc2c3c(nn2-c2cccc(Cl)c2)CS(=O)C3)cc1 (stereo unspecified),28%
CC(C(=O)Oc1ccc2c(c1)OCO2)N1C(=O)c2ccccc2C1=O (stereo unspecified),20%
Cc1nc2cncc(Br)c2n1C,-4%
CC(C)Oc1ccc(C(=O)NCc2ccco2)cc1,-4%
O=S(=O)(Nc1ncccn1)c1ccc(Nc2ncnc3ccccc23)cc1,-10%
O=NN(c1ccccc1)c1ccccc1,2%
Cc1ccc(N2C(=O)Nc3ccc(Br)cc3C2(O)C(=O)NCCCN(C)C)cc1C (stereo unspecified),-7%
O=C(NC1CCCCCCC1)C1CCN(S(=O)(=O)N2CCCC2)CC1,4%

# Shown tab-delimited: entries from further up
canonical_smiles	AmpC nodet inh
CC(C(=O)Oc1ccc2c(c1)OCO2)N1C(=O)c2ccccc2C1=O (stereo unspecified)	20%
O=C(NC1CCCCCCC1)C1CCN(S(=O)(=O)N2CCCC2)CC1	4%

# In the list so far, these contain an aryl thioether with sulfur outside any ring:
SMILES,AmpC nodet inh
Cc1csc(NC(=O)CSc2nnc(Cn3c(=O)sc4ccccc43)n2-c2ccccc2)n1,69%
CCOC(=O)c1sc(NC(=O)CSc2nnnn2-c2ccc(C)cc2)c(C(=O)OCC)c1C,-15%

# (list continues)
SMILES,AmpC nodet inh
Cc1c(Cl)cccc1N1C(=O)c2ccccc2C1=O,-3%
COc1cccc(-c2cc(NCc3cnc(C)cn3)ncn2)c1,28%
Cc1cc(NC(=O)CSc2c(C)[nH]c3ccccc23)no1,2%
CCOC(=O)c1sc2ncn(/N=C/N(C)C)c(=O)c2c1C,26%
COc1cccc(Cn2c(=O)c(-c3ccc(F)cc3)nc3cnc(N4CCOCC4)nc32)c1,0%
O=C(Cn1cnc2c(cnn2-c2ccc(F)cc2)c1=O)N1CCN(c2ccccc2F)CC1,23%
O=C(c1ccc2c(c1)OCO2)N1CCN=C1SCc1cccnc1,9%
Cc1ccc(N(CC(N)=O)C2SC(=O)N(Cc3ccccc3)C2=O)cc1 (stereo unspecified),71%
CC1CN(C(=O)c2cn3ccccc3n2)CC(C)O1 (stereo unspecified),2%
COC(=O)[C@H]1C[C@@H]1[C@H](NC(C)=O)c1ccccc1,11%
C=CCn1c(=N)n(CC(O)COc2ccccc2OC)c2ccccc21 (stereo unspecified),15%
O=c1c(O)c(-c2ccc(O)cc2)oc2cc(O)ccc12,u
CCn1nc(C(=O)OC2CCOC2=O)c2ccccc2c1=O (stereo unspecified),-13%
CCCCN(CCCC)CCCNC(=O)CC1Oc2ccc(C)cc2NC1=O (stereo unspecified),3%
CCC(C)(C)NC(=O)C(c1cccc(OC)c1)N(C(=O)c1ccn[nH]1)c1cccc(OC)c1 (stereo unspecified),71%
CC(=O)NC(CCS(C)(=O)=O)C(=O)Nc1ccc2c(c1)OCO2 (stereo unspecified),9%
COc1ccc(-c2noc(-c3cccc(OC)c3OC)n2)cc1OC,40%
Cc1ccc(N2C(=O)C3C(C2=O)C(C(=O)c2ccc(Cl)cc2)N2CCCC32)cc1 (stereo unspecified),22%
O=C(CCCC(=O)Nc1cccnc1)Nc1cccnc1,12%
Cc1noc(C)c1C(=O)N1CCC2(CCN(Cc3cc(C(F)(F)F)cc(C(F)(F)F)c3)CC2)CC1,142%
COCCn1c(SCC(=O)N2CCC(C)CC2)nc2ccccc2c1=O,75%
CNc1ncnc2c1ncn2[C@H]1C[C@H](OP(=O)(O)O)[C@H](COP(=O)(O)O)O1,2%
Cc1occc1-c1nnc(SCC(=O)c2c[nH]c3ccccc23)n1C,14%
O=C1C2C3C=CC(C3)C2C(=O)N1c1n[nH]c(-c2cccnc2)n1 (stereo unspecified),8%
O=c1ccc(Oc2nc(N3CCCCC3)nc(N3CCCCC3)n2)n[nH]1,32%
O=C(O)CCC(=O)Nc1ccc(N2CCOCC2)cc1,-15%
CC(C)(C)n1ncc2c(=O)n(CC(=O)Nc3ccc(Cl)cc3)cnc21,10%
COCC(=O)N1CCC2(CCCN(c3ncccn3)C2)CC1,12%
CC(C)Cn1c(N)c(C(=O)NCCN2CCOCC2)c2nc3ccccc3nc21,138%
Cc1cc(C(F)(F)F)nc(NCc2cccnc2)n1,17%

# In the list so far, two have a CF3 group.
SMILES,AmpC nodet inh
Cc1noc(C)c1C(=O)N1CCC2(CCN(Cc3cc(C(F)(F)F)cc(C(F)(F)F)c3)CC2)CC1,142%
Cc1cc(C(F)(F)F)nc(NCc2cccnc2)n1,17%

# (further entries)
SMILES,AmpC nodet inh
COCCn1c(=O)c(-c2cn(C)c3ccccc23)nc2cnc(OCc3ccccc3)nc21,28%
COc1ccc(C2=NO[C@@H]3C(=O)N(c4cccc(C)c4C)C(=O)[C@H]23)cc1OC,44%
O=C1CC(c2ccco2)CC2=C1C=Nc1ccccc1N2 (stereo unspecified),12%
O=C(CCS(=O)(=O)c1ccc(Cl)cc1)OCC(=O)N1CCCCC1,20%
COCCn1c(C)cc(C(=O)COC(=O)c2n[nH]c3ccccc23)c1C,53%
O=C(N1CCCC1)N1CCN(c2ncnc3c(-c4ccc(Cl)cc4)nsc23)CC1,50%
O=C(O)c1ccn(Cn2cnc3ccccc32)n1,-7%
Cc1ccc(SCc2[nH]nc3c2C2(CCSCC2)C(C#N)=C(N)O3)cc1,-10%
O=C(c1ccccc1)N1CCCC(C(=O)N2CCCCCC2)C1 (stereo unspecified),-6%
Clc1ccc2[nH]c3c(NCC4CCCO4)ncnc3c2c1 (stereo unspecified),-16%
CN(C)CCCO[C@H]1[C@@H]2OC(C)(C)O[C@@H]2O[C@@H]1[C@H](O)CO,-7%[12.8 µM]
COc1cccc(-c2nn(C)c3sc(C(=O)N4CCN(c5ccccc5)CC4)cc23)c1,68%
COCCN(CC(=O)NCC1CCCO1)C(=O)CCC(=O)Nc1cc(C)on1 (stereo unspecified),-7%
COc1cccc(Cn2c(=O)c(-c3ccccc3)nc3cnc(N(C)C)nc32)c1,-2%
N#CCCn1c(=O)c(-c2cccs2)nc2cnc(Nc3ccccc3)nc21,-3%
COc1ccc(OC)c(S(=O)(=O)Nc2ccc(O)c(Sc3ncn[nH]3)c2)c1,-12%
Cc1ccc(S(=O)(=O)c2c(C)nn(C(C)(C)C)c2OC(=O)c2ccc(Br)o2)cc1,15%
CCCN1C(=O)C(O)(C/C(C)=N/O)c2ccccc21 (stereo unspecified),4%
CCOC(=O)c1cnc(SCC(=O)NCc2cccs2)nc1N,-7%
COc1ccc(OC)c(N2C(=O)NC(=O)C(CCc3ccncc3)(CCc3ccncc3)C2=O)c1,27%
COc1cccc(-c2cc(C(F)(F)F)n3ncc(C(=O)O)c3n2)c1,-9%
CCc1cc(C)cc(OCCNC(=O)c2ncn[nH]2)c1,10%
N#Cc1cc2ccccc2nc1SCC(=O)Nc1ccc(S(=O)(=O)N2CCCC2)cc1,5µM*
O=C1c2oc3ccc(F)cc3c(=O)c2C(c2ccccc2)N1CC1CCCO1 (stereo unspecified),40%
COc1cc(OC)c(C2C3=C(CCCC3=O)Nc3nc4ccccc4n32)cc1OC (stereo unspecified),68%
Cc1onc(-c2ccccc2)c1C(=O)n1cccn1,-3%
O=C(Cn1cnc2c(nnn2Cc2ccc(F)cc2)c1=O)N1CCCCC1,-1%
O=C(CCCn1c(=S)[nH]c2cc3c(cc2c1=O)OCO3)N1CCN(c2ccccc2F)CC1,10%
Cc1ccc(CCNC(=O)C2CCC(=O)N2Cc2cccnc2)cc1 (stereo unspecified),-12%
CCn1c(SCC(=O)NCCc2ccc(OC)c(OC)c2)nc2c1c(=O)n(C)c(=O)n2C,7%

# Compounds shown so far that have fluorine (10):
SMILES,AmpC nodet inh
NCCC[C@@](N)(C(=O)O)C(F)F,4%
Cn1c(C(=O)NCCN2CCN(c3ccccc3F)CC2)cc2c(=O)n(C)c3ccccc3c21,4µM*[single pt active]
COc1cccc(Cn2c(=O)c(-c3ccc(F)cc3)nc3cnc(N4CCOCC4)nc32)c1,0%
O=C(Cn1cnc2c(cnn2-c2ccc(F)cc2)c1=O)N1CCN(c2ccccc2F)CC1,23%
Cc1noc(C)c1C(=O)N1CCC2(CCN(Cc3cc(C(F)(F)F)cc(C(F)(F)F)c3)CC2)CC1,142%
Cc1cc(C(F)(F)F)nc(NCc2cccnc2)n1,17%
COc1cccc(-c2cc(C(F)(F)F)n3ncc(C(=O)O)c3n2)c1,-9%
O=C1c2oc3ccc(F)cc3c(=O)c2C(c2ccccc2)N1CC1CCCO1 (stereo unspecified),40%
O=C(Cn1cnc2c(nnn2Cc2ccc(F)cc2)c1=O)N1CCCCC1,-1%
O=C(CCCn1c(=S)[nH]c2cc3c(cc2c1=O)OCO3)N1CCN(c2ccccc2F)CC1,10%

# (list continues)
SMILES,AmpC nodet inh
CCOC(=O)c1[nH]c(C)c(C(=O)NCc2ccc(OC)cc2)c1C,6%
Brc1cc2c(cc1Cn1c(-c3cncs3)nc3ccccc31)OCO2,23%
CCCCOC(=O)CCNc1n[nH]c(=O)[nH]c1=O,6%
COc1ccccc1CCn1c(=O)c(-c2ccc(Cl)cc2)nc2cncnc21,-3%
Brc1ccc(Oc2ccc(Br)cc2Br)c(Br)c1,13µM*
CCOC(=O)c1sc2ncn(C(C)C(=O)OCC)c(=O)c2c1C (stereo unspecified),32%
CCn1c(CC(=O)Nc2cccc(OC)c2)nnc1SCC(=O)Nc1nccs1,-12%
CCCCN(CCCC)C(=O)CN(C)S(=O)(=O)c1ccc2c(c1)n(C)c(=O)c(=O)n2C,56%
COCc1c(C(=O)OCc2nc(N)nc(Nc3ccccc3C)n2)oc2ccccc12,37%
CC(C(=O)NC1CCCC1)N(Cc1ccc2c(c1)OCO2)C(=O)c1snc(C(N)=O)c1N (stereo unspecified),17%
O=C(COc1ccccc1F)NC1CC1,-8%
C=CCSc1nnc(-c2ccc(Cl)cc2Cl)o1,8%
O=C(NCc1cccs1)c1noc2c1CCCC2,-3%
O=C(CSc1nnc(-c2ccoc2)o1)N1CCOCC1,-6%
CCOC(=O)c1cnn(-c2ccccc2)c1NC(=O)c1ccccc1,-3%
O=C(CNC(=O)c1ccccc1C(=O)O)c1ccccc1,13%
Cn1cnc2cc(OC(=O)c3ccccc3)ccc21,12%
Cc1cc(O)c(-c2cc(O)c(C)cc2O)cc1O,-4%[5.75 µM]
COc1ccc(CCN(Cc2cc3cc4c(cc3[nH]c2=O)OCO4)C(C)=O)cc1OC,42%
O=C(O)CSc1nnc(Cn2c(=O)sc3ccccc32)n1-c1cccc(Cl)c1,-4%
O=CC=O,-6%
Cc1cc(C)n(CC(O)Cn2c3ccccc3c3ccccc32)c(=O)n1 (stereo unspecified),132%
COc1ccc(CNc2ncnc3ccc(-c4ccccc4CN(C)C)cc23)c(OC)c1,96%
CCOC(=O)c1c(NC(=O)Cn2c(C)nc3ccccc32)sc2c1CCC2,56%
O=C(CSc1nnc(-c2ccc3c(c2)OCCO3)o1)NC1CCCCC1,0%
O=C(Nc1nc(-c2ccc(S(=O)(=O)N3CCCC3)cc2)cs1)C1COc2ccccc2O1 (stereo unspecified),-18%
CCN(CC)C(=O)CN(C)S(=O)(=O)c1cccc2nsnc12,3%
Cc1ccc(-c2ccc(=O)n(CC(=O)Nc3cccc(C(=O)N4CCN(C)CC4)c3)n2)cc1,105%
Cc1nc(SCC(=O)N(C)Cc2ccco2)c2c(C)c(C)sc2n1,71%
O=C(CSc1nnc2ccccn12)N1CCc2ccccc2C1,6%
